Bioassay records from PubChem.
ALR inh: inhibitors of human sulfhydryl oxidase ALR; purified ALR, DTT oxidation, H2O2 HRP-luminol luminescence; inhibition, % (test concentration not listed); 290,000 tested, 3.8% active; AID 485317;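 active means mean and each replicate at 75% or more; inconclusive means only one of the two met; inactive means neither met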;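 further: stock transfer was 7.5 nL into about 7.5 µL; 0% = neutral wells and 100% = wells with inactivated enzyme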
Target sequence (P55789 whole entry, looked up): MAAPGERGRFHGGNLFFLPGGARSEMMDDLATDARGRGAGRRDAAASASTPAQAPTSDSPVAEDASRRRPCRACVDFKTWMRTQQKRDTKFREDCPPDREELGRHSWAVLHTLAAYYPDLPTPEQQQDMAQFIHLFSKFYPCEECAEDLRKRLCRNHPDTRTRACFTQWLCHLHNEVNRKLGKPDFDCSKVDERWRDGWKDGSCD
Calb FLC: C. albicans growth modulation with fluconazole | growth inhibition, % (test concentration not listed) | C. albicans CaCi-2 (fluconazole-resistant clinical isolate) + fluconazole, Alamar Blue growth, 48 h | 300,000 tested, 0.57% active;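 active means most replicates above 75%; inconclusive means exactly half above 75%; inactive means most below 75%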;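 further: all wells also contain fluconazole at 8 µg/ml as a sub-toxic cotreatment; 0% = median of DMSO wells and 100% = median of geldanamycin control wells; wells of about 8 µL received 7.5 nL stock; the first replicate is given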
LANA-H2A inh: blocks KSHV LANA binding to histone H2A/H2B | Q9QR71 | cell-free LANA-H2A/H2B peptide, fluorescence polarization | inhibition, % (test concentration not listed) | 320,000 tested, 0.6% active; in the data active means inhibition mostly above about 10%, no sharp cut-off; inactive means mostly below about 6.7%;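 further: stock transfer was 7.5 nL into about 10 µL; 0% = median of vehicle wells and 100% = median of positive control wells; one replicate is shown; the record names a cut of 25% in any replicate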
RanGTP-Imp inh: disruptors of Ran-importin-beta complex formation – biochemical, FRET, CFP-Ran, YFP-importin-beta, homogeneous, primary screen; cell-free CFP-Ran/YFP-importin-beta FRET ratio; inhibition, % (test concentration not listed); 300,000 tested, 1.1% active; AID 2216;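 active means most replicates above 15%; inconclusive means exactly half above 15%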;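 further: 0% = DMSO wells and 100% = Ran loaded with GDP instead of GTP; wells of about 40 µL received 100 nL stock; the first replicate is given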
HNF4A DNA FP: change in binding of human HNF4 alpha to DNA. activity change, % at 10 µM. HNF4a-FITC DNA binding, fluorescence polarization, 1 h. 360,000 tested, 0.3% active; in the data active means activity change above about 30%, passing the limit was not always enough;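 further: controls were the assay level and a saturating level of protein; the project sought stronger binding though the title names inhibitors; some compounds called inactive have numbers as strong as hits; positive values seem to mean higher polarization but the record does not say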
Target sequence (P41235 whole entry, looked up): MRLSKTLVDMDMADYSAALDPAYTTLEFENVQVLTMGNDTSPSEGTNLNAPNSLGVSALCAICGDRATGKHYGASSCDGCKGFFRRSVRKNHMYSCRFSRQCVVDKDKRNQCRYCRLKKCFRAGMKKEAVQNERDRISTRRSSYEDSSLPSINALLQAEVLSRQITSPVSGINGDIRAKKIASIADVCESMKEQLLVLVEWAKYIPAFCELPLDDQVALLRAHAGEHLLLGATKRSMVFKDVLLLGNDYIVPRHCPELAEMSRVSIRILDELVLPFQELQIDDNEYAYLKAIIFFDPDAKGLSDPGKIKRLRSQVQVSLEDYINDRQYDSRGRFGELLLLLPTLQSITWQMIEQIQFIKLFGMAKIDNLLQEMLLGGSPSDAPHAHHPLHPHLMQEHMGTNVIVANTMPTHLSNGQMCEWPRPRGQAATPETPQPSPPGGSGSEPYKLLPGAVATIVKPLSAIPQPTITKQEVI
Beta2AR agonist: activates human beta-2 adrenergic receptor causing internalization; Am2.2-beta2AR cells, FAP receptor internalization, flow cytometry; reference of the scale not given here; response, % (concentration not given with the values); AID 504454; 340,000 tested, 0.43% active;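 active means response above a set limit, near 3 SD of response in nonfluorescent compounds, cut at about 42% in these data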;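 further: stock transfer was 100 nL into about 11 µL; a reference agonist was the positive control; negative values mostly stem from fluorescent compounds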
Target sequence (P07550 whole entry, looked up): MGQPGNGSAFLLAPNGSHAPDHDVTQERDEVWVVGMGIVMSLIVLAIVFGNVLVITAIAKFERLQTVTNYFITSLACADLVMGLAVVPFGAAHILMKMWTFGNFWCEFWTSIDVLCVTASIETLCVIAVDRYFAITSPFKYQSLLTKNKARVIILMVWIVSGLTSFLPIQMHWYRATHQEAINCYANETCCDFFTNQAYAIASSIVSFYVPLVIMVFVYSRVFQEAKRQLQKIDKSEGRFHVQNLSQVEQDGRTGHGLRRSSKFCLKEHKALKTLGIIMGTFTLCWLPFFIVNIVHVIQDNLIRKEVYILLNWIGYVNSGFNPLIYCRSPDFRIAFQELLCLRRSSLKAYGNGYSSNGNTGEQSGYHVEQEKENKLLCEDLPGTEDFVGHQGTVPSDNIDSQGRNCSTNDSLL
Vif TR-FRET: inhibitors of Vif binding to APOBEC3G peptide, primary screen, biochemical, TR-FRET, GST-Vif 1-94, biotin-A3G peptide, dose response retest (AID 1117319) | TR-FRET GST-Vif / biotin-A3G peptide binding; higher % means a stronger effect; test concentration not given here; strong numbers were not always called active | one-dose inhibition, %; IC50 in µM for titrated hits | 260,000 tested, 0.57% active;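 active means above the screen mean plus three standard deviations and confirmed in dose response; inconclusive means results disagree or hit not tested in dose response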;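 further: Vif residues 1-94 fused to GST binding biotinylated APOBEC3G peptide 110-148; 0% = full assay without inhibitor and 100% = GST in place of GST-Vif; retest series ran down from 100 µM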
The depositor's hits bear a star; ? = inconclusive; nt = no result given.

SMILES | ALR inh | Calb FLC | LANA-H2A inh | RanGTP-Imp inh | HNF4A DNA FP | Beta2AR agonist | Vif TR-FRET
CCOC(=O)N1CC(C)N(CC(O)CN2CCOCC2)CC1C (centres undefined) | nt | nt | nt | nt | 2.6 | -3 | 0%
c1ccc2cc(OCCCn3ccnc3)ccc2c1 | -6 | -2 | -2.1 | 1.0 | -1.6 | 0 | nt
CCOC(=O)c1c(NC(=O)CN2CCCCC2)sc(C)c1C | 7 | -10 | -1.0 | -1.5 | 0.7 | -1 | -9%
COc1cc(CN=Cc2c(O)n(Cc3ccccc3)c(=S)[nH]c2=O)cc(OC)c1 | -10 | -10 | 0.3 | 3.6 | 0.2 | -4 | -13%
O=C(/C=C/C(Cl)(Cl)Cl)Nc1ccc(Cl)cc1 | nt | nt | nt | nt | -2.1 | -6 | -2%
COc1ccc(C(NCC(=O)Nc2c(C)cccc2C)c2ccccc2)cc1 (centres undefined) | nt | -6 | 1.6 | 2.2 | -4.2 | 4 | -4%
O=C(CSc1ncn[nH]1)NC1CCCc2ccccc21 (centres undefined) | -4 | -7 | -3.9 | 2.1 | 3.8 | 10 | 9%
COc1ccccc1OCC(=O)Nc1ccccc1C(=O)NC1CC1 | 9 | -1 | -1.3 | -1.9 | 2.2 | 8 | 9%
C=CCNC(=O)c1ccccc1SCc1c(C)noc1C | -10 | 44 | -5.6 | 0.6 | -1.1 | 0 | nt
COc1ccc(-n2ccnc2SCC(=O)Nc2cc(C)on2)cc1 | 44 | 1 | 2.4 | -3.1 | 6.6 | -3 | nt
CN(C)CCCNc1ccc(S(N)(=O)=O)cc1[N+](=O)[O-] | -13 | 35 | 1.7 | 0.5 | -4.6 | 8 | 2%
Cc1c(NC(=O)C(C)Sc2nccn2C)c(=O)n(-c2ccccc2)n1C (centres undefined) | 1 | nt | 4.5 | nt | -2.8 | -6 | 0%
O=C(CNC(=O)c1ccco1)NNC(=O)c1n[nH]c(=O)c2ccccc12 | -19 | nt | 3.0 | nt | 0.3 | -3 | -2%
CC(C)(CN1CCc2ccccc2C1)NS(=O)(=O)c1ccc(Cl)cc1 | -4 | 0 | 25* | 6.6 | -7.7 | 4 | -6%
CN(C(=O)COc1nnc(-c2cccs2)c(-c2cccs2)n1)c1ccccc1 | -5 | 17 | -3.8 | -1.6 | 6.8 | 5 | -1%
CCN(Cc1nc2cc(Cl)ccc2c(=O)[nH]1)C(=O)c1cccc(OCc2c(C)noc2C)c1 | -4 | nt | 91* | nt | -2.3 | 13 | 13%
CCOc1ccccc1/C=N/NC(=O)c1nnn(-c2nonc2N)c1CN1CCC(C)CC1 | 1 | -2 | 0.2 | 2.0 | -2.3 | -4 | nt
CC1(C)CC(=O)CC(C)(C)N1OC(=O)c1ccco1 | 2 | -6 | -1.8 | -3.1 | -1.9 | 4 | 1%
Cc1ccc(N2CCN(S(=O)(=O)N(C)C)CC2)cc1Cl | -11 | 12 | -1.5 | -3.9 | -1.5 | 8 | 17%
COc1ccc(CCNC(=O)c2cc(CC(C)C)on2)cc1OC | nt | -9 | -4.4 | 0.9 | -1.4 | 1 | 4%
CC(C)(C)C(=O)NNC(=O)c1cnccn1 | 10 | -12 | -3.6 | -6.2 | 2.3 | -9 | ?
CCOC(=O)n1c(=O)n(Cc2cccc(F)c2)c2ccccc21 | 0 | 0 | 1.0 | 1.5 | -0.9 | -2 | -5%
Cc1nn(C(=O)CCC(=O)NCCc2ccccc2)c2ccccc12 | 15 | -4 | nt | 5.1 | 1.4 | -19 | nt
O=C1CC(c2cccc(Cl)c2)CC(O)=C1C=Nc1ccccc1 (centres undefined) | -1 | -3 | 3.4 | -3.3 | 8.3 | -21 | nt
COc1ccccc1NC(=O)NCC(=O)Nc1c(C)cccc1C | -8 | 0 | -1.8 | -1.9 | 1.5 | 1 | -6%
COc1cc(N)c(Cl)cc1C(=O)OC(C)C(=O)Nc1cccc(S(=O)(=O)N2CCOCC2)c1 (centres undefined) | -3 | -9 | 0.3 | 7.3 | 0.1 | -12 | 1%
CCn1c2ccccc2c2cc(NC(=O)C(=O)N3CCOCC3)ccc21 | 91* | 32 | 0.8 | -4.1 | 0.6 | 3 | nt
CCOC(=O)c1cc2c(C)n(-c3ccc(OCC)cc3)c(C)c2cc(C(=O)OCC)c1=O | 4 | -5 | 0.4 | 1.7 | 1.6 | -16 | -2%
O=C(NC(NC(=S)Nc1c(Cl)cc(Cl)cc1Cl)C(Cl)(Cl)Cl)OCc1ccccc1 (centres undefined) | -32 | -8 | 2.6 | -0.3 | -6.0 | 15 | nt
CCCC1C(C#N)=C(N)Oc2cc(C)n(C)c(=O)c21 (centres undefined) | -3 | 5 | 4.3 | 18* | 0.2 | 6 | -1%
COc1ccc(Oc2ccccc2C#N)cc1 | -3 | -9 | 5.0 | 5.3 | 0.3 | 3 | 3%
COc1ccc(-c2cc(C(=O)Nc3ccc(C(N)=O)cc3)c3ccccc3n2)cc1 | -5 | -13 | 1.0 | 6.3 | 0.9 | 6 | nt
O=C(CCCN1C(=O)/C(=C/c2ccccc2)SC1=S)NCCCn1ccnc1 | -6 | 3 | -1.9 | -1.7 | -1.2 | -13 | nt
O=C(COc1ccc2ccccc2c1)NNC(=O)[C@@H]1CCCC[C@@H]1C(=O)O | -15 | 8 | -2.1 | 1.9 | -2.9 | 9 | 1%
CC1CCC/C(=N/Nc2ccc([N+](=O)[O-])cc2[N+](=O)[O-])C1 (centres undefined) | -4 | -35 | 1.2 | 2.5 | -9.2 | -6 | -5%
Cc1cccc(C)c1NC(=S)NC(=O)c1ccc(Br)o1 | -3 | 2 | 9.6 | 2.9 | 3.9 | -3 | 1%

Complete entries, quoted from the list. Values in the order: ALR inh, Calb FLC, LANA-H2A inh, RanGTP-Imp inh, HNF4A DNA FP, Beta2AR agonist, Vif TR-FRET
Entry for Cc1c(NC(=O)C(C)Sc2nccn2C)c(=O)n(-c2ccccc2)n1C (centres undefined) = 1, nt, 4.5, nt, -2.8, -6, 0%
Entry for CC(C)(CN1CCc2ccccc2C1)NS(=O)(=O)c1ccc(Cl)cc1 = -4, 0, 25*, 6.6, -7.7, 4, -6%
Entry for O=C(CCCN1C(=O)/C(=C/c2ccccc2)SC1=S)NCCCn1ccnc1 = -6, 3, -1.9, -1.7, -1.2, -13, nt

Additional results
SMILES | ALR inh | Calb FLC | LANA-H2A inh | RanGTP-Imp inh | HNF4A DNA FP | Beta2AR agonist | Vif TR-FRET
O=C(Cc1n[nH]c(=O)c2ccccc12)N1CCN(S(=O)(=O)c2ccc(F)c(Cl)c2)CC1 | -3 | nt | 4.7 | nt | -1.6 | -7 | -2%
COc1ccc(COC(=O)NNC(=O)c2ccccc2Cl)cc1 | -3 | -4 | 6.1 | 6.2 | -2.0 | -1 | 4%
Cc1cccc(CN2CCCC(C(=O)N3CCc4ccccc4C3)C2)c1 (centres undefined) | -9 | -13 | -2.8 | 1.1 | 0.6 | 4 | 7%
O=C(NC(=S)Nc1ccc(S(=O)(=O)N2CCCCC2)cc1)c1cccs1 | nt | -7 | nt | 4.6 | -7.0 | -6 | -1%
CCN(CC)CCN1C(=O)c2oc3ccccc3c(=O)c2C1c1ccc(C)cc1 (centres undefined) | -10 | 5 | 4.1 | 3.6 | 2.9 | 2 | -2%
COc1ccccc1NC(=O)CSc1nnc(-c2ccoc2C)n1CCc1ccccc1 | 2 | 3 | 0.6 | 3.3 | 4.9 | 2 | -8%
COc1cccc(N2CCN(C(=O)CNC(=O)c3sc4ccccc4c3Cl)CC2)c1 | -2 | 7 | 4.0 | -4.9 | -0.6 | 5 | 0%
CN(C(=O)COc1ccc(C(C)(C)C)cc1)C1CCS(=O)(=O)C1 (centres undefined) | 0 | -4 | 3.6 | 6.6 | 0.8 | 1 | -1%
COc1ccc(C/C(N)=N/OC(=O)Cc2ccc(OC)c(OC)c2)cc1 | -1 | 7 | -2.8 | -1.5 | -5.1 | 5 | 0%
CCN1CCN(c2cc(C)c3cc(NC(=O)c4ccc(OC)c(OC)c4)ccc3n2)CC1 | nt | -3 | 0.3 | -0.3 | 4.4 | -3 | 4%
CN=C(Nc1cc(C)nn1CCC#N)c1ccccc1 | nt | -6 | -0.6 | 19* | 0.4 | 9 | 19%
CSc1nc(N)c(NC(=O)c2ccc(Br)o2)c(=O)[nH]1 | 6 | nt | -1.2 | nt | 1.6 | -2 | -5%
Clc1ccc(-c2cccs2)nn1 | 1 | 8 | 3.5 | -1.5 | -3.9 | -10 | -16%
CCOc1ccccc1C1C(C#N)=C(N)Oc2cc(C)n(Cc3ccccn3)c(=O)c21 (centres undefined) | 0 | -20 | 4.0 | ? | -0.3 | 4 | ?
O=C(Nc1ncc2c(n1)-c1ccccc1CC2)C1CC1 | -4 | -18 | 4.0 | 4.6 | 1.8 | -24 | nt
Cc1cc(NS(=O)(=O)c2ccc(NC(=S)NC(=O)c3ccccc3)cc2)no1 | 29 | 9 | -1.1 | 2.1 | -1.9 | -6 | nt
CC(C)C(C)NC(=O)COC(=O)c1cccc(C(=O)OCC(=O)NC(C)C(C)C)n1 (centres undefined) | 0 | -17 | 3.7 | nt | -17 | -3 | nt
COc1ccc(-c2nc(CS(=O)CC(=O)NC3CCCCC3)c(C)o2)cc1OC (centres undefined) | 99* | -13 | -2.0 | -3.4 | -2.0 | 3 | nt
COc1ccccc1CNS(=O)(=O)c1ccc(NC(C)=O)cc1 | 3 | 19 | 0.5 | -1.1 | 1.7 | 9 | -3%
COc1ccc(-c2nn(C)c3sc(C(=O)N4CCOCC4)cc23)cc1OC | nt | 17 | 0.2 | 2.4 | -5.8 | -1 | 14%
CCOC(=O)C1(Cc2cccc(OC)c2)CCCN(S(=O)(=O)CC)C1 (centres undefined) | nt | 23 | -1.0 | 1.8 | -3.8 | -2 | -4%
COc1ccc(-c2cn3nc(SCC(=O)NCC4CCCO4)ccc3n2)cc1 (centres undefined) | -10 | 36 | -2.9 | 9.9 | -1.2 | -6 | -2%
COC(=O)[C@@H](NC(=O)N1CCN(C(=O)C2COc3ccccc3O2)CC1)C(C)C (some centres undefined) | -4 | 0 | 3.8 | 0.4 | 3.9 | 3 | -1%
O=C1C(=O)N(c2ccccn2)C(c2ccc(Br)cc2)/C1=C(/O)c1ccc(Br)cc1 (centres undefined) | 27 | -3 | -1.7 | -2.4 | -3.6 | 2 | nt
COc1ccc(/C=N/NC(=S)Nc2ccccc2)cc1COc1ccc(Br)cc1 | 7 | 8 | 6.9 | -6.2 | -5.8 | 3 | -2%
O=C(NC1CC(=O)N(c2ccc3c(c2)OCCO3)C1)N1CCC(O)CC1 (centres undefined) | nt | -4 | 1.7 | 0.7 | -2.7 | -6 | -9%
CCc1ccc(OC(C)C(=O)Nc2ccc(S(=O)(=O)Nc3nccs3)cc2)cc1 (centres undefined) | nt | 12 | -0.4 | 3.3 | 8.4 | 17 | nt
COC(=O)c1ccccc1S(=O)(=O)N1CCCC(c2nc3c(nnn3Cc3ccc(C)cc3)c(=O)[nH]2)C1 (centres undefined) | -1 | 0 | 2.7 | ? | -2.3 | 4 | nt
CC(=O)c1ccc(C(=O)Nc2ccc(N3CCOCC3)cc2)cc1 | -14 | 3 | 4.0 | -2.0 | -2.7 | 5 | -2%
COc1cccc(C2=CC(c3ccc(OC)c(OC)c3OC)n3nnnc3N2)c1 (centres undefined) | -3 | 7 | 0.1 | -26 | -0.3 | 8 | 0%
O=C(NNC(=S)NC(=O)c1ccccc1[N+](=O)[O-])c1ccccc1 | 12 | 10 | 7.1 | -1.4 | -1.6 | 15 | ?
C=CCNc1nc(Nc2ccc(-c3nc4ccccc4o3)cc2)nc(N2CCOCC2)n1 | 0 | -4 | 11 | -0.2 | 7.5 | 1 | -4%
Cc1ccc2c(Cl)c(C(=O)Nc3nn[nH]n3)sc2c1 | 3 | 1 | 4.6 | 1.2 | 1.9 | 0 | -4%
